Source: PubChem
MLL AF4-AF9 inh – MLL-AF4/AF9 protein interaction inhibition; P42568; AlphaScreen, biotin-AF4 peptide binding to FLAG-AF9; inhibition, % at 10 µM; 350,000 tested, 0.47% active;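 active = every replicate reaching a set inhibition limit, whatever the replicate mean, cut at about 25% in these data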;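 note: 0% = plate neutral control median and 100% = total signal loss; the record names both 10 and 1 µM as test concentration; the first replicate is given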
Target sequence (P42568 whole entry, looked up): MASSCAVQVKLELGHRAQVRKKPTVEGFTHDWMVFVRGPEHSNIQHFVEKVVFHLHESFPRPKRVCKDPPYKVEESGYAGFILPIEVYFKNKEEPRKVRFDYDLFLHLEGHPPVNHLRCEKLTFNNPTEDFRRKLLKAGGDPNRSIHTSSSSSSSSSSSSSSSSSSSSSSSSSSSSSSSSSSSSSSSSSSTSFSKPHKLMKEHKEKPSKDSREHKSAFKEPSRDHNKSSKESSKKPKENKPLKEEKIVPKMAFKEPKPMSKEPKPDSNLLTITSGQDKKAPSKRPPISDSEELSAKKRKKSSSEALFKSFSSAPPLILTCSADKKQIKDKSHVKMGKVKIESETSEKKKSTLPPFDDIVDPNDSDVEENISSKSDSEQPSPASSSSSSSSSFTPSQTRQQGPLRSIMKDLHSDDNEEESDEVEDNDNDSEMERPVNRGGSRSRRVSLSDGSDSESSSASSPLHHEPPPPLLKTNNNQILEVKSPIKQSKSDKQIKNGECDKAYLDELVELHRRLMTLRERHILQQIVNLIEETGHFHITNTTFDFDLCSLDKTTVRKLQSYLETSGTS
rRNA inh HTS – selective bacterial rRNA inhibition in E. coli | E. coli WT GFP vs humanized-ribosome RFP mutants, fluorescence, 24 h; active compounds read low; DMSO median 0, no signal -100 | GFP signal change (wild-type ribosome), % (no concentration beside the values) | 350,000 tested, 1.6% active;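 active = significant combined selectivity score with lowered wild-type GFP, culture density cut under 30%, mutant RFP and density less affected; inactive = any of these conditions unmet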; note: one replicate is shown; some compounds called inactive have numbers as strong as hits
rRNA inh HTS OD600 – recorded beside rRNA inh HTS, whose call it bears; OD600 change, %; measured here: OD600 growth;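 optical density of the mix in the first replicate; 0 = DMSO median and -100 = no signal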
rRNA inh HTS RFP – also measured in rRNA inh HTS; calls as there; RFP signal change, %; measured here: RFP humanized mutant strains;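 first replicate; 0 = DMSO median and -100 = no signal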
Numbers without * were called inactive; i = inactive; . = not tested or not shown; & = joins results of further samples.

SMILES | MLL AF4-AF9 inh | rRNA inh HTS | rRNA inh HTS OD600 | rRNA inh HTS RFP
O=C(CCN1CCCCC1)NCC[C@@H]1CC[C@H](NC(=O)C2CCC2)[C@H](CO)O1 | -2.3 | 2 | -5 | -0.5
COc1ccc(CC(=O)NC(C)c2ccc(Cl)c(Cl)c2)cc1S(=O)(=O)N1CCOCC1 (configuration not stated) | 2.4 | -3 | -25 | 1.1
O=C(Nc1cccc(F)c1)N1CCCCN2[C@H](C1)[C@@H](c1ccc(C#Cc3cccnc3)cc1)[C@@H]2CO | -2.4 | -18 | -52 | 25
O=C1NC[C@@H](CCCCN2CCN(CCc3ccc(O)cc3)C(=O)C2=O)N(CC2CCCCC2)C1=O | -3.1 | 11 | 10 | -0.2
O=C(C[C@@H]1CC[C@@H]2[C@H](COC[C@@H](O)CN2C(=O)Nc2ccc(Cl)cc2)O1)NCCc1ccncc1 | 0.6 | -54 | -58 | -17
O=C(CCN1CCCCC1)NCC[C@@H]1CC[C@@H](NC(=O)Cc2cccnc2)[C@H](CO)O1 | 0.9 | 5 | 10 | -0.2
O=C(Nc1ccccc1)Nc1ccc2c(c1)[C@@H]1C[C@H](CC(=O)N3CCCCC3)O[C@H](CO)[C@@H]1O2 | -1.1 | 0 | -8 | -0.6
C[C@@H]1CN([C@H](C)CO)C(=O)c2cccc(NC(=O)CCCCCC(=O)Nc3ccccc3N)c2O[C@@H]1CN(C)S(C)(=O)=O | 0.2 | 7 | 8 | -1.1
COCC(=O)N1[C@H](C#N)[C@H](c2ccccc2-c2cccc(OC)c2)[C@@H]1CO | 1.2 | 3 | 10 | 3.9
C[C@@H]1CN([C@H](C)CO)C(=O)c2cc(-c3ccc(F)cc3)cnc2O[C@H]1CN(C)Cc1ccccn1 | -5.4 | 5 | 7 | -1.8
OC[C@@H]1Nc2ccc(C#Cc3ccc(F)cc3)cc2[C@H]2[C@@H]1CCN2Cc1ccc2c(c1)OCO2 | 16 | i | . | .
O=C(Cc1ccc(NC(=O)C2CCCN(C(=O)C3CCCCC3)C2)cc1)Nc1ccc(C(=O)N2CCOCC2)cc1 (configuration not stated) | -5.0 | 3 | 22 | 6.1
CCCC#Cc1ccc([C@H]2[C@H](CO)N3C(=O)CN(S(=O)(=O)Cc4ccccc4)C[C@@H]23)cc1 | 0.6 | 3 | -46 | 30
CC(C)C(=O)Nc1ccc2c(c1)C(=O)N(C)[C@@H]1CC[C@@H](CC(=O)Nc3ccccc3)O[C@H]1CO2 | 1.7 | -1 | -1 | -1.7
C[C@H](CO)N1C[C@H](C)[C@H](CN(C)S(=O)(=O)c2ccc(F)cc2)Oc2ccc(NC(=O)CCN3CCOCC3)cc2C1=O | -2.9 | 5 | 9 | -0.3

Part of the list above with just rRNA inh HTS.
| structure | rRNA inh HTS |
| --- | --- |
| O=C(C[C@@H]1CC[C@@H]2[C@H](COC[C@@H](O)CN2C(=O)Nc2ccc(Cl)cc2)O1)NCCc1ccncc1 | -54 |
| O=C(CCN1CCCCC1)NCC[C@@H]1CC[C@@H](NC(=O)Cc2cccnc2)[C@H](CO)O1 | 5 |
| O=C(Nc1ccccc1)Nc1ccc2c(c1)[C@@H]1C[C@H](CC(=O)N3CCCCC3)O[C@H](CO)[C@@H]1O2 | 0 |
| C[C@@H]1CN([C@H](C)CO)C(=O)c2cccc(NC(=O)CCCCCC(=O)Nc3ccccc3N)c2O[C@@H]1CN(C)S(C)(=O)=O | 7 |
| COCC(=O)N1[C@H](C#N)[C@H](c2ccccc2-c2cccc(OC)c2)[C@@H]1CO | 3 |

Further compounds follow.
SMILES | MLL AF4-AF9 inh | rRNA inh HTS | rRNA inh HTS OD600 | rRNA inh HTS RFP
CCCC(=O)N1CCCC1(C)C(=O)NCc1ccc(SC)cc1 (configuration not stated) | 1.3 | 6 | 20 | 2.6
CN(CCc1ccccc1)C(=O)c1ccc(NC(=O)Cc2cccc(NC(=O)C3CCN(C(=O)c4ccccc4)CC3)c2)cc1 | 1.7 | -12 | 0 | 0.6
C[C@H]1CN([C@@H](C)CO)C(=O)c2cc(-c3ccccc3F)cnc2O[C@@H]1CN(C)C(=O)NC1CCCC1 | -6.7 | -8 | -1 | -2.1
C[C@@H]1CN([C@@H](C)CO)C(=O)c2c(c3ccccc3n2C)-c2ccccc2CO[C@H]1CN(C)S(=O)(=O)c1cccs1 | 2.4 | -4 | 5 | 1.9
C[C@H]1CN([C@@H](C)CO)C(=O)c2cc(NC(=O)CCCCCC(=O)Nc3ccccc3N)ccc2O[C@@H]1CN(C)C(=O)Nc1ccccc1 | -1.4 | 2 | 5 | -1.1
C[C@H](CO)N1C[C@H](C)[C@H](CN(C)Cc2ccc(C(F)(F)F)cc2)Oc2ccc(NC(=O)Cn3cnnn3)cc2CC1=O | -0.6 | -4 | 2 | -1.0
COCC(=O)Nc1ccc2c(c1)C(=O)N(C)C[C@@H](OC)[C@H](C)CN(C(=O)c1ccncc1)[C@H](C)CO2 | -0.7 | 3 | 4 | -0.8
CC(=O)N1CC2(C1)[C@@H](c1ccccc1)[C@@H](CO)N2S(=O)(=O)c1ccccc1 | 0.7 | -1 | 1 | 2.9
Clc1ccc(-c2nc3ccc(Br)cn3c2Cc2ccsc2)cc1 | -0.7 | -23* | -8.5* | 4.4*
C[C@@H]1CN([C@H](C)CO)S(=O)(=O)c2ccc(C#Cc3cccnc3)cc2O[C@H]1CN(C)C(=O)Nc1ccc2c(c1)OCO2 | -9.8 | -4 | -3 | 1.8
CC(C)NC(=O)N(C)C[C@@H]1Oc2c(NS(=O)(=O)c3ccc(Cl)cc3)cccc2C(=O)N([C@H](C)CO)C[C@H]1C | -0.7 | 1 | -7 | -1.5
CC(=O)NC(c1ccc(F)c(F)c1)c1nc(-c2cccc(C(C)C)c2)cs1 (configuration not stated) | -1.1 | -3 | -7 | -1.9
C[C@@H]1CN([C@@H](C)CO)C(=O)c2cc(Br)cnc2O[C@@H]1CN(C)Cc1ccccn1 | 1.7&-3.4&-2.9 | 15&8 | 15&15 | 3.6&-5.2
Cc1ccc(-c2ccc3c(c2)O[C@H](CN(C)C)[C@@H](C)CN([C@H](C)CO)S3(=O)=O)cc1 | -5.0 | -1 | -4 | 2.7
CCCC(=O)N1CCCC(c2cc(C(=O)NCc3cccnc3)no2)C1 (configuration not stated) | -1.2 | 4 | 13 | -7.3

Overlap with the part before: 3 entries; new compounds follow.
SMILES | MLL AF4-AF9 inh | rRNA inh HTS | rRNA inh HTS OD600 | rRNA inh HTS RFP
C[C@@H]1CN([C@@H](C)CO)C(=O)c2cc(Br)cnc2O[C@@H]1CN(C)Cc1ccccn1 | 1.7&-3.4&-2.9 | 15&8 | 15&15 | 3.6&-5.2
Cc1ccc(-c2ccc3c(c2)O[C@H](CN(C)C)[C@@H](C)CN([C@H](C)CO)S3(=O)=O)cc1 | -5.0 | -1 | -4 | 2.7
CCCC(=O)N1CCCC(c2cc(C(=O)NCc3cccnc3)no2)C1 (configuration not stated) | -1.2 | 4 | 13 | -7.3
O=C(Nc1ccc2c(c1)[C@@H]1C[C@H](CC(=O)N3CCc4ccccc4C3)O[C@@H](CO)[C@@H]1O2)C1CCOCC1 | -3.6 | 0 | -4 | 0.3
O=C(Cc1ccccc1)N1CC(=O)N2[C@H](CO)[C@@H](c3ccc(-c4cccc(F)c4)cc3)[C@@H]2C1 | -1.3 | -57 | -69 | -13
COCC(=O)Nc1ccc2c(c1)OC[C@H](C)NC[C@@H](C)[C@H](OC)CN(C)C2=O | 0.4 | 1 | 3 | -0.1
COC(=O)c1ccc2nc(-c3ccc(C#N)cc3)c(Cc3cccc(F)c3)n2c1 | 1.0 | 2 | -2 | 4.3
CC(C)NC(=O)N(C)C[C@@H]1Oc2cc(C#C[C@H](C)O)ccc2S(=O)(=O)N([C@H](C)CO)C[C@H]1C | -2.7 | 3 | 2 | -1.3
C[C@@H]1CN([C@@H](C)CO)C(=O)c2cc(NS(C)(=O)=O)ccc2O[C@@H]1CN(C)S(=O)(=O)c1cccs1 | -1.5 | -3 | 4 | 0.0
CC(=O)N(C)C[C@@H]1Oc2ncc(-c3ccc(C#N)cc3)cc2C(=O)N([C@@H](C)CO)C[C@@H]1C | -2.3 | 5 | 2 | -0.4
C[C@H](CO)N1C[C@H](C)[C@@H](CN(C)C(=O)c2ccccc2)Oc2ncc(Br)cc2C1=O | -0.7 | -1 | 1 | -4.0
COc1ccc(S(=O)(=O)N(C)C[C@@H]2Oc3c(NC(=O)CCCCCC(=O)Nc4ccccc4N)cccc3C(=O)N([C@@H](C)CO)C[C@H]2C)cc1 | -4.4 | -2 | -7 | 0.4
COc1ccc2c3c([nH]c2c1)[C@H](CO)N(C(=O)Nc1c(C)noc1C)CC31CCN(CC2CCCC2)CC1 | 4.2 | 1 | -10 | -1.6
CCOC(=O)C1(C)CCCN1C(=O)c1snnc1C (configuration not stated) | -5.3 | 0 | 5 | -1.0
COc1ccc(NC(=O)Nc2ccc3c(c2)C(=O)N([C@H](C)CO)C[C@H](C)[C@H](CN(C)Cc2ccc4c(c2)OCO4)OCCCC[C@@H](C)O3)cc1 | 1.9 | 3 | 13 | 0.9
CC(=O)NC[C@@H]1[C@@H](c2ccccc2)[C@@H](CO)N1C(=O)Cc1cccnc1 | -0.7 | 2 | 10 | -2.5
C[C@H](NC(=O)C[C@@H]1C[C@@H]2c3cc(NC(=O)NC4CCCCC4)ccc3O[C@@H]2[C@H](CO)O1)c1ccccc1 | -1.6 | 2 | 0 | -1.9
Cn1c(NCC2CCCCC2)nc2cc(-c3ccsc3)sc2c1=O | -0.4 | 4 | 6 | -1.1
CCc1nc2ccc(C(=O)N(C)Cc3ccco3)cn2c1N(CC)Cc1cccc(Br)c1 | -4.4 | -19 | -31 | 2.1
COC(=O)C[C@@H]1CC[C@H]2[C@@H](COc3ccc(NC(=O)c4cscn4)cc3C(=O)N2C)O1 | -3.2 | 0 | 0 | 0.9
CCCC#Cc1ccc([C@H]2[C@@H](C#N)N(S(C)(=O)=O)[C@H]2CO)cc1 | 1.3 | 5 | -6 | 28
CC=Cc1ccc2n(c1=O)C[C@@H]1[C@@H](CO)[C@H](C(=O)NCc3ccccc3)N(S(C)(=O)=O)[C@H]21 (mixture of isomers) | -0.8 | -2 | 4 | 1.8
COCCNC(=O)C[C@H]1C=C[C@@H](NC(=O)NC2CCCCC2)[C@@H](CO)O1 | 0.9 | 1 | -2 | -0.8
CCCCc1c(-c2ccccc2OC)ncn1CCc1cccc(F)c1 | 19 | -28 | -80 | -22
CC(C)NC(=O)Nc1ccc2c(c1)C(=O)N([C@H](C)CO)C[C@@H](C)[C@@H](CN(C)Cc1ccc(C(=O)O)cc1)OCCCC[C@@H](C)O2 | 1.1 | 0 | 2 | -1.9
NC(=O)c1ccc(Nc2nc(C(N)c3ccccc3Cl)cs2)cc1 (configuration not stated) | -6.7 | 4 | 6 | 1.7
Cc1ccc(S(=O)(=O)N2C[C@H](O)COC[C@@H]3O[C@H](CC(=O)NCCN4CCCCC4)CC[C@H]32)cc1 | -1.7 | 0 | 3 | -0.3
Cc1ccc(S(=O)(=O)Nc2cccc3c2O[C@H](CN(C)Cc2ccc(Oc4ccccc4)cc2)[C@@H](C)CN([C@@H](C)CO)C3=O)cc1 | -3.8 | 3 | -5 | 0.4
CCCC(=O)N1CCCC1(C)C(=O)Nc1ccc(C)c(C)c1 (configuration not stated) | -1.0 | 3 | 6 | 0.2
CC(C)(C)S(=O)N1Cc2cc(C(=O)NCc3ccc(Oc4ccccc4)cc3)nc(-c3cccc(-c4cccc(F)c4)c3)c2[C@@H]1CCO (some centres not stated) | -2.0 | 0 | 6 | 8.6
CN1CCN(C(=O)C[C@@H]2C[C@H]3c4cc(NC(=O)c5ccc6c(c5)OCO6)ccc4O[C@H]3[C@H](CO)O2)CC1 | -0.1 | 1 | -4 | 2.1
CC(C)CC#Cc1ccc([C@H]2[C@H](CO)N3C(=O)CN(C(=O)Cc4cccnc4)C[C@@H]23)cc1 | 2.7 | 0 | -1 | 4.1
CN(C)CC(=O)N1CC2(C1)[C@@H](c1ccccc1)[C@@H](CO)N2C(=O)C1CCCCC1 | -3.5 | 3 | 6 | 0.3
CCOC(=O)[C@@H](NC(=O)/C=C/[C@H]1O[C@@H](n2ccc(=O)[nH]c2=O)[C@H](O)[C@@H]1O)C(C)C | -0.1 | 3 | 24 | -2.9
Cc1noc(C)c1NC(=O)N(C)C[C@H]1Oc2ncc(C#CC3CCCCC3)cc2C(=O)N([C@@H](C)CO)C[C@H]1C | 2.8 | 0 | -11 | 1.0
CC(C)NC(=O)N(C)C[C@H]1Oc2c(NC(=O)Nc3ccccc3)cccc2C(=O)N([C@@H](C)CO)C[C@H]1C | -0.7 | 1 | 0 | -1.3
Cc1nccn1-c1ccc(NC(=O)[C@H]2O[C@@H](n3ccc(N)nc3=O)[C@H](O)[C@@H]2O)cc1 | 0.6 | 11 | 11 | 2.3

Some of the compounds tested; count on the stated rates, not on these rows.
